ClpP mod = qHTS Assay for Activators of ClpP; ATP-dependent Clp protease proteolytic subunit (Bacillus subtilis (strain 168)), P80244; purified B. subtilis ClpP, FRET peptide cleavage, 20 min; Potency, µM (series often up to 57.5 µM), for the others: top-dose activity change, negative = active; hit rate 1.9% among 340,000; AID 651965, 2013; active = well fitted falling curve with a large enough effect; inconclusive = small, poorly fitted or top-dose-only effect; inactive = no such curve, though single readings can be large or run the other way; note: potency is the fitted concentration of half-maximal effect; the source files actives as falling curves though it sought activators and does not explain the sign; nearly all actives have a fitted effect of over 65% in size; many hits overshoot -100%
Target sequence (P80244 whole entry, looked up): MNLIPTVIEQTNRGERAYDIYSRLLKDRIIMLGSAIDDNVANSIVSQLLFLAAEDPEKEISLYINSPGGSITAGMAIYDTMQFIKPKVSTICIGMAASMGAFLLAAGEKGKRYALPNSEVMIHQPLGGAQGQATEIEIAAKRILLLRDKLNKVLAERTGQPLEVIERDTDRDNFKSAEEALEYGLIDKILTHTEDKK
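FRET quenching reversal measured ClpP activation: 10 microg/mL B. subtilis ClpP at pH 8 with the FRET-FV decapeptide, read at 430 nm after 320 nm excitation. The 20-min minus 0-min signal was scaled between DMSO/no-enzyme wells and ADEP (5.8 microM final).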
Sfp PPTase inh = blocks B. subtilis Sfp PPTase activity | Q9F4F7 | hit rate 3.5% among 310,000 | Biochemical Sfp PPTase activity, qHTS | Potency, µM, without a hit: max response, negative = inhibition, hits mostly inhibitors; active = well fitted inhibition curve with a large enough effect; inconclusive = small, poorly fitted or top-dose-only effect, or another doubt; inactive = no such curve, though single readings can be large or run the other way;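 note: the enzyme is Sfp with the accession as filed and its product quenches rhodamine fluorescence; potency is the fitted concentration of half-maximal effect; 0% = enzyme reaction without inhibitor and -100% = no enzyme wells; top concentration of the series not given in the record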
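Buffer: 50 mM Hepes-Na pH 7.6, 10 mM MgCl2, 0.01% Nonidet P-40, 0.01% BSA. Enzyme 15 nM, pre-exposed to compound 15 min; substrates then added and fluorescence change tracked over 30 min.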
Menin MLL FP FL = displaces fluorescein MLL peptide from human menin; 290,000 tested, under 10 active; FP activity change, % at 61.4 µM; Fluorescence polarization, fluorescein-MLL peptide displacement from menin; AID 1766; inconclusive = falling polarisation curve, or a change in total fluorescence; inactive = total fluorescence flat and polarisation flat or rising; no compound was filed as active; the % refers to the polarisation; negative = inhibition;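 note: % of control where 0% means no effect; inhibitors lower the polarisation; unlabelled MLL peptide was the positive control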
gsp antagonist = gsp mutant antagonism; gsp-mutant cells, cAMP HTRF, 30 min; control for the full effect not named in the record; AID 624288; Potency, µM (highest dose often 76.9 µM), inactives show top-dose activity change, negative = inhibition, hits mostly inhibitors; hit rate 0.4% among 340,000; active = falling curve of any shape with a large fitted effect; inconclusive = falling curve, mostly with a smaller effect; inactive = flat or rising curve; cell line not stated here;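 note: intracellular cAMP measured with PDE inhibitor Ro 20-1724 present during compound exposure; potency is the fitted concentration of half-maximal effect; % is set by controls: 0 for no effect and ±100 for the full control effect; nearly all actives have a fitted effect of over 65% in size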
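Cells in G418 medium, seeded 16-24 h, 37C; buffer exchange to DPBS + 1 mM CaCl2, 0.5 mM MgCl2, 0.05% BSA; cpds in DMSO + […] (300 uM stock), 30 min 37C; HTRF cAMP detection.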
gsp ag = activates gsp, the McCune-Albright syndrome mutation; gsp mutant cells, cAMP HTRF, 30 min; control for the full effect not named in the record; AID 624287; hit rate 0.13% among 340,000; Potency, µM (titrated, usually from 76.9 µM), for the others: at the top dose activation (cAMP increase), actives largely listed as activators; active = well fitted activation curve with a large enough effect; inconclusive = small, poorly fitted or top-dose-only effect, or another doubt; inactive = no such curve, though single readings can be large or run the other way; cell line not stated here;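 note: phosphodiesterase inhibitor Ro 20-1724 added with compounds to block cAMP breakdown; potency is the fitted concentration of half-maximal effect; nearly all actives have a fitted effect of over 60% in size; about a fifth of the inactives were tested at one dose only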
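Cells stably selected in G418 were plated at 2000/well, grown 16-24 hr, then given compounds in DMSO with the PDE inhibitor […] (300 uM solution added) for 30 min at 37C; cAMP was read by HTRF.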
TRPV1 potentiator = enhances activation of the human vanilloid receptor TRPV1; hit rate 0.02% among 320,000; AID 540277; Q8NER1; TRPV1-expressing cells, Fluo-8 calcium influx, capsaicin EC20 potentiation; host cell line not named in the record; control for the full effect not named in the record; potentiation, % at 8.33 µM; active means potentiation above 80%; inconclusive means 30% to 80%; inactive means below 30%; note: 0% is about no effect
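Fluo-8 calcium influx in TRPV1-expressing cells, kinetic read (ex 480/em 520 nm). Compound added and read 3 min for agonist activity, followed by capsaicin at EC20 final and 2 min further read for enhancement.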
D2 PAM = positive allosteric modulators of human D2 dopamine receptor. DiscoveRx D2 beta-arrestin cells, luminescence, 90 min; 100% = 57 uM dopamine signal. P14416. hit rate 0.23% among 360,000. potentiation, % (concentration not given with the values); active = potentiation of 50% or more; inconclusive = 30% to 50%; inactive = 30% or less;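 note: compound concentration not given in the record; tested on top of an EC20 dose of dopamine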
Target sequence (P14416 whole entry, looked up): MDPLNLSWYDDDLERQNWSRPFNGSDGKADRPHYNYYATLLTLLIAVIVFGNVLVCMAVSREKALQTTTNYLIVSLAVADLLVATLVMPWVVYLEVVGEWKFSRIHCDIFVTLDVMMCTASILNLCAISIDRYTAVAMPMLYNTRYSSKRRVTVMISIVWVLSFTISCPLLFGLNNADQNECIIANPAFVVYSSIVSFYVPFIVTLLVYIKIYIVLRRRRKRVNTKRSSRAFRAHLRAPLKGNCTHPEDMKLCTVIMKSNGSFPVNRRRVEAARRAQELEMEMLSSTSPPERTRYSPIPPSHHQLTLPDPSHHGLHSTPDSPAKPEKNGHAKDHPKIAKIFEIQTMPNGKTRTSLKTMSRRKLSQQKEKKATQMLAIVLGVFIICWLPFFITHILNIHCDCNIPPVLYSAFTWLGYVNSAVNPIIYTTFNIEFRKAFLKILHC
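PathHunter D2 cells, attached overnight at 37 deg C, received compound in DMSO plus dopamine at EC20 (50 nM final) for 90 min at 37 deg C. Beta-arrestin recruitment was read as luminescence after 1 h with detection reagent at ambient temperature.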
Starred values were filed as active, the others as inactive; ? = inconclusive; . = no result given; [ ] = another dose, or the depositor's remark. Outcome played no part in choosing rows; 5.1% or so of the library scored in one or more.

The line under a structure holds: gsp ag	Sfp PPTase inh	D2 PAM	TRPV1 potentiator	ClpP mod	Menin MLL FP FL	gsp antagonist
COc1ccc(NC(=O)CSc2nc3ccsc3c(=O)n2CCC(=O)O)cc1
 : 2%	.	-10	.	-0.2%	.	.
COc1ccc(C(=O)Nc2ccccc2C(=O)N/N=C/c2ccccc2OC)cc1
 : -7%	22%	-12	-1	-29%	-1.4	-11%
Cc1c(N2C(=O)/C(=C3/C(=O)N(C)c4ccccc43)SC2=S)c(=O)n(-c2ccccc2)n1C
 : -25%	-3%	21	-6	0.5%	1.5	6%
CCc1nnc(NC(=O)CSc2nc(C)cc(C)c2C#N)s1
 : ?	-11%	-9	1	-2.1%	-4.4	?
ClCCn1c(CCl)nc2ccc(Cl)cc21
 : -17%	.	-3	.	1.5%	.	.
O=C(COC(=O)CCOc1ccccc1)NCCc1ccccc1
 : -20%	.	-23	-8	2.2%	.	-2%
CN(C(=S)NC(=O)c1ccc(F)cc1)C1CCCCC1
 : -1%	-1%	-10	-27	-1.6%	.	7%
Cc1ccc(C(c2nnnn2C(C)(C)C)N(Cc2ccco2)Cc2cccs2)cc1 (stereo unspecified)
 : -29%	13%	-13	14	2.7%	4.8	0%
O=C(N/N=C/c1ccccc1O)c1ccncc1
 : .	38%	7	-13	0.5%	7.0	-8%
Cc1cc(N2CCOCC2)nc2ccc(NC(=S)N3CCCCC3C)cc12 (stereo unspecified)
 : 1%	?	-7	10	.	-1.4	-5%
Cc1ccc(OCc2ccc(C(=O)N3CCCC3)o2)cc1C
 : 23%	-9%	2	4	.	0.1	?
COc1ccc(Nc2nc(N3CCCC3)nc(N3CCCC3)n2)c(OC)c1
 : -41%[inhibitor]	?	-13	-2	0.4%	-4.0	-28%
COc1ccccc1CN1C(=O)[C@@H]2C(CC(N)=O)NC3(C(=O)Nc4c3ccc(Cl)c4C)[C@@H]2C1=O (stereo partly specified)
 : 9%	-2%	-20	9	3.8%	-3.4	6%
O=C(/C=C/NCc1cccnc1)c1ccc(-c2ccccc2)cc1
 : 3%[15.4 µM]	10%	-12	-17	-0.1%	3.3	-22%
O=C(CCN1CCN(CCO)CC1)Nc1ccc(OCc2ccccc2)cc1
 : ?	-14%	1	4	0.7%	2.6	2%
CCN(CC)C(=O)c1sc(NC(=O)c2cccnc2)c(C(=O)OC)c1C
 : -35%[inhibitor]	-4%	-4	-11	-0.2%	0.6	-2%
COc1ccc(N2CCN(C(=O)C(CCSC)N=C3NS(=O)(=O)c4ccccc43)CC2)cc1 (stereo unspecified)
 : 3%	3%	-5	-7	-1.3%	2.3	9%
Cc1ccc(NC(=S)NNC(=S)Nc2ccc(C)cc2C)cc1
 : 12%[15.4 µM]	13µM*	-8	9	-0.7%	5.0	-50%
COc1cccc(C(=O)O/N=C(\N)c2ccc([N+](=O)[O-])cc2)c1OC
 : 6%	-3%	?	18	1.3%	6.1	7%
Cc1ccccc1NC(=O)CCCn1nc(C)c2c(C)n(-c3ccccc3)nc2c1=O
 : -49%[inhibitor]	17%	-8	26	-2.5%	.	-12%
CN(Cc1ccccc1)c1nc2c(c(=O)[nH]c(=O)n2C)n1C
 : -80%[inhibitor]	21%	-5	1	0.0%	-0.2	6%
OCCN1CCN(c2cc(C(F)(F)F)nc3ccccc23)CC1
 : ?	7%	-14	-7	.	-2.8	-4%
COc1cccc(OCc2ccc(Cl)cc2)c1C#N
 : -25%	6%	-1	-3	-2.1%	0.6	-23%
Cc1ccc(NC(=O)COC(=O)CCc2nc3ccccc3n2-c2ccccc2)c(C)c1
 : 7%	14%	-18	-5	0.9%	6.8	19%
CCOc1ccc(N(CC(=O)Nc2ccccc2C(=O)N2CCOCC2)S(=O)(=O)c2ccc(F)cc2)cc1
 : -22%	8%	-1	-2	-1.7%	3.6	-2%
COc1ccc2c(c1)CCc1c(C(=O)N3CCOCC3)noc1-2
 : 5%	7%	1	-15	-1.8%	0.5	-7%
Cn1cccc1/C=N/NC(=O)CSc1nc2ccccc2[nH]1
 : 1%[15.4 µM]	-14%	-9	.	0.8%	-0.1	-8%
CCOc1ccccc1/C=C/C(=O)NCC(=O)N1CCC(N(C)C2CCCCC2C)CC1 (stereo unspecified)
 : 27%	-1%	-12	14	.	.	9%
CCc1ccccc1N(C(=O)c1cccs1)C1C=CS(=O)(=O)C1 (stereo unspecified)
 : ?	8%	1	3	-1.1%	1.9	0%
COc1ccc(C(=O)OCC(=O)Nc2ccc3[nH]c(=O)[nH]c3c2)cc1
 : 15%[15.4 µM]	.	-4	-7	1.0%	.	-16%
CCC(C(=O)NC1CCCC1)N(C(=O)Cn1nnc(-c2ccc(C)o2)n1)c1ccc(OC)c(OC)c1 (stereo unspecified)
 : 0%[15.4 µM]	12%	-9	17	.	.	0%
CC(NCc1ccc(S(N)(=O)=O)cc1)C(=O)Nc1cc([N+](=O)[O-])ccc1Cl (stereo unspecified)
 : 10%[15.4 µM]	5%	3	10	.	3.4	-9%
CCOC(=O)N/N=C/C=C/c1ccccc1
 : -55%[inhibitor]	3%	-22	7	-4.8%	-0.2	8%
CN=C1SC(C(=O)O)CC(=O)N1C (stereo unspecified)
 : -29%	17%	-3	-8	-1.0%	1.3	4%
Cc1ccc(S(=O)(=O)N2CCN(CC(=O)N3CCOCC3)CC2)cc1
 : -32%	1%	-3	-1	1.4%	.	16%
N/C(=N\OC(=O)Cc1ccc(-c2ccccc2)cc1)c1cccnc1
 : 7%	-2%	0	-12	-2.8%	6.0	?
c1ccc(CCc2nc3ccccc3[nH]2)cc1
 : 8%	19%	-9	-15	-3.2%	-7.1	5%
COc1ccc([C@H]2CC(=O)C=C(c3ccccc3)C2)cc1OC
 : .	.	11	0	-0.1%	.	2%
CCCCn1nc(C(=O)N[C@@H](CCSC)c2nc3ccccc3[nH]2)c2ccccc2c1=O
 : ?	12%	-10	-13	-2.1%	-1.0	3%
Cc1nnc2n1N=C(c1ccc(F)cc1F)CS2
 : 26%	.	-2	4	2.4%	.	5%
Cc1noc(C)c1COc1ccc(C(=O)OCC(=O)NC(=O)C2COc3ccccc3O2)cc1 (stereo unspecified)
 : -2%	7%	16	6	-19%	-1.0	2%
Cc1ccc(C(OCC(O)CN2CCCCC2CO)c2ccccc2)cc1 (stereo unspecified)
 : -43%[inhibitor]	-1%	-9	15	-1.3%	1.1	-4%
COc1cc(OC)cc(C(=O)NCC(=O)N2CCN(S(=O)(=O)c3ccccc3F)CC2)c1
 : 21%	.	-3	.	-2.3%	.	-10%
CC(C)CC1C(=O)N(Cc2cn(CCC3OCCCO3)nn2)CCS(=O)(=O)N1Cc1ccc(-c2ccc(Cl)cc2)cc1 (stereo unspecified)
 : -77%[inhibitor]	.	-3	.	2.5%	.	.
O=C(/C=C/c1ccccc1)C1=C(O)C(=O)N(CCO)C1c1ccc2c(c1)OCO2 (stereo unspecified)
 : 22%[15.4 µM]	18%	-8	4	.	-0.6	-5%

The final 4 entries of the part above come first, to join the parts.
The line under a structure holds: gsp ag	Sfp PPTase inh	D2 PAM	TRPV1 potentiator	ClpP mod	Menin MLL FP FL	gsp antagonist
Cc1ccc(C(OCC(O)CN2CCCCC2CO)c2ccccc2)cc1 (stereo unspecified)
 : -43%[inhibitor]	-1%	-9	15	-1.3%	1.1	-4%
COc1cc(OC)cc(C(=O)NCC(=O)N2CCN(S(=O)(=O)c3ccccc3F)CC2)c1
 : 21%	.	-3	.	-2.3%	.	-10%
CC(C)CC1C(=O)N(Cc2cn(CCC3OCCCO3)nn2)CCS(=O)(=O)N1Cc1ccc(-c2ccc(Cl)cc2)cc1 (stereo unspecified)
 : -77%[inhibitor]	.	-3	.	2.5%	.	.
O=C(/C=C/c1ccccc1)C1=C(O)C(=O)N(CCO)C1c1ccc2c(c1)OCO2 (stereo unspecified)
 : 22%[15.4 µM]	18%	-8	4	.	-0.6	-5%
N/C(=N\OC(=O)C1CCCCC1)c1ccncc1
 : -10%[15.4 µM]	12%	-6	-7	.	1.3	13%
CCOC(=O)c1ccc(NC(=S)N(CCCN2CCN(C)CC2)Cc2cccs2)cc1
 : -4%[15.4 µM]	14%	-9	7	.	-0.6	7%
CCOc1ccc(C(=O)OCC(=O)Nc2cccnc2Cl)cc1OCC
 : 3%	.	3	.	5.4%	.	-5%
COCCCN(C(=O)CSCc1ccc(C)cc1)c1c(N)n(Cc2ccccc2)c(=O)[nH]c1=O
 : 2%[15.4 µM]	.	-8	26	-9.6%	.	6%
Cc1ccc(SCCC(=O)Nc2ccccc2C(=O)NC2CCCCC2)cc1
 : -3%[15.4 µM]	-1%	0	-24	-2.1%	2.6	-9%
Cn1ncc2c(Nc3cc(Cl)cc(Cl)c3)ncnc21
 : 27%	12%	-5	19	-26%	1.7	8%
COc1ccccc1N1CCN(C(=O)c2ccc(Br)o2)CC1
 : -30%[inhibitor]	.	1	.	-3.3%	.	-4%
O=C(c1ccncc1)c1ccc(Br)cc1
 : 5%	1%	-6	-34	0.6%	-0.6	8%
COc1ccc2oc(=N)c(C(=O)NCc3ccccc3)cc2c1
 : 1%[15.4 µM]	10%	-1	?	-0.2%	3.5	5%
Cc1ccc(O)c(C(=O)c2cnc3c(c2)c(-c2ccc(F)cc2)c(C#N)c(=O)n3C)c1
 : -4%[15.4 µM]	?	?	10	.	11	-10%
O=C1c2ccccc2C(Nc2ccc3c(c2)OCO3)N1Cc1ccco1 (stereo unspecified)
 : -16%	-29%	-1	14	0.3%	3.7	-11%
Cc1cccc(C(=O)O/N=C(\c2ccccc2)c2cccnc2)c1
 : -28%	-11%	6	-33	-1.8%	5.6	3%
Cc1ccc(-c2nc(CSCC(=O)N3CCOCC3)c(C)o2)cc1
 : -9%	3%	3	-12	-29%	7.2	-7%
CCN(C(=O)COc1cccnc1[N+](=O)[O-])C1CCS(=O)(=O)C1 (stereo unspecified)
 : -56%[inhibitor]	21%	-28	-2	28µM*	6.8	8%
O=C(O)C1CCN(C(=O)c2ccc3c(c2)OCO3)CC1
 : -16%	18%	-10	-13	1.6%	.	12%

Screens (PubChem)
